High-throughput results as filed in PubChem.
Ecoli growth = inhibitors of Escherichia coli growth. OD600, 23 h; hits give low values. hit rate 0.21% among 330,000. OD600 absorbance (test concentration not listed);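 active means OD600 absorbance below the run mean of sample wells minus 3.6 SD, in any replicate, cut at about 0.56 in these data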;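 further: stock transfer was 300 nL into about 60 µL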
Bfl-1 A1 inh = inhibitors of the anti-apoptotic protein A1, read as caspase activation | caspase activation, % (concentration not given with the values) | AID 2462 | hit rate 0.066% among 330,000 | MEF A1-2A-BIM cells, Caspase-Glo 3/7 luminescence, 3 h; percent of clofoctol response, vehicle zero;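 active means over half of replicate activation scores above 10%, or exactly half above 10 with the replicate mean above 10; inconclusive means replicate mean below 10 yet half the replicates above 10; inactive means over half of replicates below 10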;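 further: wells of about 30 µL received 50 nL stock; many hits fall short of the cut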
LANA-H2A inh = blocks KSHV LANA binding to histone H2A/H2B. Q9QR71. cell-free LANA-H2A/H2B peptide, fluorescence polarization. inhibition, % (test concentration not listed). hit rate 0.6% among 320,000. AID 2629; in the data active means inhibition mostly above about 10%, no sharp cut-off; inactive means mostly below about 6.7%;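 further: stock transfer was 7.5 nL into about 10 µL; 0% = median of vehicle wells and 100% = median of positive control wells; one replicate is shown; the record names a cut of 25% in any replicate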
B2AR ag = activates human beta-2 adrenergic receptor causing internalization | P07550 | Am2.2-beta2AR cells, FAP receptor internalization, flow cytometry; reference of the scale not given here | response, % (no concentration beside the values) | hit rate 0.43% among 340,000 | AID 504454;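 active means response above a set limit, near 3 SD of response in nonfluorescent compounds, cut at about 42% in these data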;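 further: stock transfer was 100 nL into about 11 µL; a reference agonist was the positive control; negative values mostly stem from fluorescent compounds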
UCH37 DUB inh = blocks the human deubiquitinase UCH37. purified proteasome/UCH37, Ub-AMC cleavage fluorescence. inhibition, % (concentration not given with the values). hit rate 0.33% among 330,000;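 active means mean of two replicates above 20%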;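 further: 0% = compound-free wells with enzyme and 100% = wells lacking proteasome; stock transfer was 100 nL into about 20 µL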
Target sequence (Q9Y5K5 whole entry, looked up): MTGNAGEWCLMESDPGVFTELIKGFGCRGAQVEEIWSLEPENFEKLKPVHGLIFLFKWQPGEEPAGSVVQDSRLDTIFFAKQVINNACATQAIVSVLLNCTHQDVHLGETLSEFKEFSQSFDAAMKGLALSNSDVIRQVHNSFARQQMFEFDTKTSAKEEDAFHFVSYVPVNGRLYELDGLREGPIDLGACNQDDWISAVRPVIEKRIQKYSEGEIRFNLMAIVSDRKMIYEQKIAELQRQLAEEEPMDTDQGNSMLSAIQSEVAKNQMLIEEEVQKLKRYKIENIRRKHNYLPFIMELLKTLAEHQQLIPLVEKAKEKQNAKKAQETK
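Material: human UCH37 enzyme supplied as purified proteasome complex / Amount: 0.15 nM proteasome as dispensed / Buffer or medium: pH 7.4 Tris-HCl (50 mM) with ovalbumin, ATP-MgCl2, DTT / Times: preincubation 30 min, reaction 25 min, room temperature / Technique: AMC fluorescence from Ub-AMC cleavage, excitation 355 nm, emission 460 nm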
Vif A3G = inhibitors of Vif binding to APOBEC3G peptide, primary screen, biochemical, TR-FRET, GST-Vif 1-94, biotin-A3G peptide, dose response retest (AID 1117319); hit rate 0.57% among 260,000; inhibition, %, or IC50 in µM where a hit was titrated; TR-FRET GST-Vif / biotin-A3G peptide binding; higher % means a stronger effect; test concentration not given here; strong numbers were not always called active;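 active means above the screen mean plus three standard deviations and confirmed in dose response; inconclusive means results disagree or hit not tested in dose response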;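 further: Vif residues 1-94 fused to GST binding biotinylated APOBEC3G peptide 110-148; 0% = full assay without inhibitor and 100% = GST in place of GST-Vif; retest series ran down from 100 µM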
HNF4A DNA FP = change in binding of human HNF4 alpha to DNA. AID 1224865. activity change, % at 10 µM. HNF4a-FITC DNA binding, fluorescence polarization, 1 h. hit rate 0.3% among 360,000; in the data active means activity change above about 30%, passing the limit was not always enough;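 further: controls were the assay level and a saturating level of protein; the project sought stronger binding though the title names inhibitors; some compounds called inactive have numbers as strong as hits; positive values seem to mean higher polarization but the record does not say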
Target sequence (P41235 whole entry, looked up): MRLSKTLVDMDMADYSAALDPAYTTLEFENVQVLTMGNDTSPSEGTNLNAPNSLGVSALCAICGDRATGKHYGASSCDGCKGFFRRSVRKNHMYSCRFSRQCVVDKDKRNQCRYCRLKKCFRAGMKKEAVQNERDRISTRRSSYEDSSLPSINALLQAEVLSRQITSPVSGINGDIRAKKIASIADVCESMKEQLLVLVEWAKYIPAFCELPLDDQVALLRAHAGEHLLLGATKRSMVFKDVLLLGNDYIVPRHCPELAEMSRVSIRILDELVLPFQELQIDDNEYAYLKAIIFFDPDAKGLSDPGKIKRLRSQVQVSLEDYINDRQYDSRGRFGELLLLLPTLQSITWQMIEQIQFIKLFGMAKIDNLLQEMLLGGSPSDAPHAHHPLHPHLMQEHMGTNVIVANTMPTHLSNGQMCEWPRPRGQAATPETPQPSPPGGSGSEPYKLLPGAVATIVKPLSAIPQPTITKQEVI
Active calls of the source: *; & = joins results of further samples. Compounds were not picked by outcome (roughly 2.1% active in at least one column).

`Cc1cc(NC(=O)C(C)SCC(=O)Nc2cc(C(F)(F)F)ccc2N2CCOCC2)no1` (stereo not drawn) gave Ecoli growth 0.67, Bfl-1 A1 inh -0.1, LANA-H2A inh 5.6, B2AR ag -2, UCH37 DUB inh 1.6, Vif A3G -3% and HNF4A DNA FP 0.6.
For COc1ccccc1NC(=O)CN1CCN(c2ccccc2F)CC1 the results were Ecoli growth 0.67, Bfl-1 A1 inh 0.0, LANA-H2A inh 2.6, B2AR ag -3, UCH37 DUB inh 1.4, Vif A3G 8% and HNF4A DNA FP -3.0.
Screening CC1(C)CC2(CCO1)OC(=O)CC2C(=O)Nc1ccc(Br)cc1 (stereo not drawn) returned Ecoli growth 0.68, Bfl-1 A1 inh -0.5, LANA-H2A inh -1.2, B2AR ag 3, UCH37 DUB inh -1.5, Vif A3G 32% and HNF4A DNA FP -2.4.
`O=C(Nc1ccc(C(=O)NN2C(=O)c3ccccc3C2=O)cc1)c1ccccc1` gave Ecoli growth 0.68, Bfl-1 A1 inh -0.4, LANA-H2A inh -4.7, B2AR ag 12, UCH37 DUB inh -2.3 and HNF4A DNA FP -1.6.
CCOc1ccccc1C(=O)N[C@H](C(=O)NNC(=O)c1cccs1)C(C)C was read as Ecoli growth 0.7, Bfl-1 A1 inh -1.4, LANA-H2A inh 2.2, B2AR ag -14, UCH37 DUB inh 2.1 and HNF4A DNA FP 0.9.
For C=CCN1C(=O)/C(=C\c2ccc(Oc3nc(N4CCOCC4)nc(N4CCOCC4)n3)c(OC)c2)SC1=S the results were Ecoli growth 0.67, Bfl-1 A1 inh 0.6, LANA-H2A inh 1.2, B2AR ag 1, UCH37 DUB inh 4.3, Vif A3G 8% and HNF4A DNA FP -4.3.
For NC(=O)CSc1nnc(COc2ccccc2)n1Cc1ccco1 the results were Ecoli growth 0.66, Bfl-1 A1 inh -0.1, LANA-H2A inh 2.5, B2AR ag 6, UCH37 DUB inh -1.3, Vif A3G inconclusive and HNF4A DNA FP -1.2.
For CC(C)(CNC(=O)c1cccc(S(=O)(=O)NCc2ccccc2)c1)N1CCOCC1 the results were Ecoli growth 0.7, Bfl-1 A1 inh 0.7, B2AR ag 0, UCH37 DUB inh -2.4, Vif A3G 4% and HNF4A DNA FP 1.3.
Screening CC(NC(=O)c1cc(F)c(F)cc1Cl)C1CC2CCC1C2 (stereo not drawn) returned Ecoli growth 0.7, Bfl-1 A1 inh 0.1, LANA-H2A inh 3.5, B2AR ag -8, UCH37 DUB inh 1.6 and HNF4A DNA FP 1.5.
`O=C(c1ccccc1F)N1CCN(S(=O)(=O)c2ccc3c(c2)OCCO3)CC1` gave Ecoli growth 0.77, Bfl-1 A1 inh 1.1, LANA-H2A inh -4.6, B2AR ag 6, UCH37 DUB inh 2.7, Vif A3G -3% and HNF4A DNA FP 1.0.
O=C1/C(=C/c2cccs2)Cc2ccccc21 was read as Ecoli growth 0.6, Bfl-1 A1 inh -2.6, LANA-H2A inh 3.7, B2AR ag 5, UCH37 DUB inh 1.7 and HNF4A DNA FP -0.7.
For NC(=O)CC(NC(=O)Cc1ccc(Br)cc1)c1ccc(NC2CCC2)c([N+](=O)[O-])c1 (stereo not drawn) the results were Ecoli growth 0.65, Bfl-1 A1 inh 0.4, LANA-H2A inh -0.5, B2AR ag -9, UCH37 DUB inh 3.1 and HNF4A DNA FP 10.
CC1CCCN(C(=O)COC(=O)c2ccc(=O)n(Cc3ccccc3)n2)C1 (stereo not drawn) was read as Ecoli growth 0.69, Bfl-1 A1 inh 0.1, LANA-H2A inh 4.7, B2AR ag 0, UCH37 DUB inh 0.2, Vif A3G -1% and HNF4A DNA FP -4.6.
For O=C(Nc1ccc2ccccc2n1)c1ccccc1 the results were Ecoli growth 0.67, Bfl-1 A1 inh -6.4, LANA-H2A inh 3.1, B2AR ag -4, UCH37 DUB inh 3.8, Vif A3G -6% and HNF4A DNA FP -5.0.
For Cc1ccn2c(=O)nc(SCC(=O)NCc3ccco3)nc2c1 the results were Ecoli growth 0.68, Bfl-1 A1 inh -1.0, B2AR ag 8, UCH37 DUB inh 6.7, Vif A3G 15% and HNF4A DNA FP -5.3.
For Cc1ccc(N(Cc2ccc(C(=O)NCC3CCCO3)cc2)S(C)(=O)=O)cc1C (stereo not drawn) the results were Ecoli growth 0.7, Bfl-1 A1 inh 0.2, LANA-H2A inh 4.0, B2AR ag -4, UCH37 DUB inh 1.7 and HNF4A DNA FP -4.2.
Screening CCN(CC)C(=O)c1scc2c1OCCO2 returned Ecoli growth 0.7, Bfl-1 A1 inh 1.2, LANA-H2A inh -6.7, B2AR ag -1, UCH37 DUB inh 0.4, Vif A3G -4% and HNF4A DNA FP 2.9.
For CCOC(=O)c1sc2c(c1C)c(=O)n(Cc1ccccc1)c(=O)n2CCN(C)C the results were Ecoli growth 0.68, Bfl-1 A1 inh -0.1, LANA-H2A inh 3.3, B2AR ag 0, UCH37 DUB inh 5.2, Vif A3G -7% and HNF4A DNA FP 0.7.
`Cc1noc(C)c1C(=O)OCC(=O)c1c[nH]c2ccccc12` gave Ecoli growth 0.66, Bfl-1 A1 inh -0.2, LANA-H2A inh 4.9, B2AR ag -1, UCH37 DUB inh 1.6, Vif A3G -4% and HNF4A DNA FP 5.4.
`Cc1ccc(C(=O)NC2CCN(S(=O)(=O)c3ccccc3F)CC2)cc1` gave Ecoli growth 0.68, Bfl-1 A1 inh 0.0, LANA-H2A inh 0.9, B2AR ag 8, UCH37 DUB inh 2.0 and HNF4A DNA FP -3.5.
Screening Cc1ccc(C(C(=O)NC2CCCC2)N(C(=O)CCC(=O)Nc2cc(C)on2)c2ccccc2)cc1 (stereo not drawn) returned Ecoli growth 0.75, Bfl-1 A1 inh -1.3, LANA-H2A inh 5.0, B2AR ag -8, UCH37 DUB inh 3.1, Vif A3G inconclusive and HNF4A DNA FP 0.4.
C/C(=N\NC(=S)NC(C)C)c1ccccc1OC(F)F was read as Bfl-1 A1 inh -0.2, LANA-H2A inh 0.8, B2AR ag -9, Vif A3G -5% and HNF4A DNA FP -1.2.
Screening CCOC(=O)c1c(C)[nH]c(C)c1C(=O)COC(=O)COc1ccc(Cl)c(C)c1 returned Ecoli growth 0.63, B2AR ag -5, UCH37 DUB inh -0.4, Vif A3G 1% and HNF4A DNA FP 0.1.
COc1cccc(OCCOc2ccccc2[N+](=O)[O-])c1 was read as Ecoli growth 0.7, Bfl-1 A1 inh -2.5, LANA-H2A inh -4.3, B2AR ag -9, UCH37 DUB inh -0.6, Vif A3G 6% and HNF4A DNA FP 0.6.
COc1ccc(NC(=O)CN(C)S(=O)(=O)c2ccccc2)cc1 was read as Ecoli growth 0.73, Bfl-1 A1 inh 0.3, LANA-H2A inh -5.2, B2AR ag 3, UCH37 DUB inh 1.5, Vif A3G 3% and HNF4A DNA FP -2.5.
COc1ccc(/C=C/c2n[nH]c(=O)c(C#N)c2C)cc1 was read as Ecoli growth 0.65, Bfl-1 A1 inh 1.4, LANA-H2A inh 1.2, B2AR ag -8, UCH37 DUB inh 2.5 and HNF4A DNA FP -1.4.
`COc1ccccc1CCNC(=O)c1cccc(NC(=O)CC2SC(N3CCCCC3)=NC2=O)c1` (stereo not drawn) gave Ecoli growth 0.65, B2AR ag 10, UCH37 DUB inh 3.3 and HNF4A DNA FP 2.1.
Screening OCc1cn(-c2ccccc2)nc1-c1ccco1 returned Ecoli growth 0.64, Bfl-1 A1 inh -2.7, LANA-H2A inh -4.9, B2AR ag -9, UCH37 DUB inh 2.6, Vif A3G inconclusive and HNF4A DNA FP -1.4.
CC(C)(C)NC(=O)C(c1ccncc1)N(C(=O)Cn1nnc(-c2cccs2)n1)C1CCCCC1 (stereo not drawn) was read as Ecoli growth 0.73, Bfl-1 A1 inh 0.4, LANA-H2A inh 2.1, B2AR ag -11, UCH37 DUB inh -1.7, Vif A3G -2%&-3% and HNF4A DNA FP 13.
For Cc1ccc(/C=N/Nc2ncc(Cl)cc2Cl)s1 the results were Bfl-1 A1 inh -3.3, LANA-H2A inh -0.2, B2AR ag 4, Vif A3G 24% and HNF4A DNA FP 0.2.
For CCC(Sc1nc2ccccc2s1)C(=O)Nc1cc(C)on1 (stereo not drawn) the results were Ecoli growth 0.7, Bfl-1 A1 inh -1.1, LANA-H2A inh -1.9, B2AR ag -18, UCH37 DUB inh 4.9, Vif A3G -7% and HNF4A DNA FP 0.3.
For COc1cccc(/C=C2/SC(=S)N(CC(=O)NC3C=CS(=O)(=O)C3)C2=O)c1 (stereo not drawn) the results were Ecoli growth 0.66, Bfl-1 A1 inh -1.2, LANA-H2A inh 4.6, B2AR ag -3, UCH37 DUB inh 8.7 and HNF4A DNA FP 2.2.
Screening O=C1CN(C(=O)COC(=O)CCSc2ccccc2Cl)c2ccccc2N1 returned Ecoli growth 0.68, Bfl-1 A1 inh 0.9, LANA-H2A inh 2.9, B2AR ag 1, UCH37 DUB inh 2.3, Vif A3G 64% and HNF4A DNA FP 0.3.
`CN(C(=O)COC(=O)c1cn(-c2ccccc2)nc1-c1ccccc1)C1CCS(=O)(=O)C1` (stereo not drawn) gave Ecoli growth 0.69, Bfl-1 A1 inh 0.8, LANA-H2A inh -1.8, B2AR ag -19, UCH37 DUB inh 1.8, Vif A3G 3% and HNF4A DNA FP -3.3.
CC(C)CN(C(=O)CCc1ccccc1)c1c(N)n(CC(C)C)c(=O)[nH]c1=O was read as Ecoli growth 0.67, Bfl-1 A1 inh -0.1, LANA-H2A inh -1.6, B2AR ag 2, UCH37 DUB inh 5.0, Vif A3G 5% and HNF4A DNA FP -0.1.
Screening O=C(c1ccc(N2CCN(C(=O)c3ccc(F)c(F)c3)CC2)cc1)c1cccc(F)c1 returned Ecoli growth 0.73, Bfl-1 A1 inh 0.2, LANA-H2A inh -13, B2AR ag 7, UCH37 DUB inh -2.9 and HNF4A DNA FP 1.6.
For COc1ccc(CCNC(=O)CC(NC(=O)c2ccccc2Cl)c2ccccc2)cc1 (stereo not drawn) the results were Ecoli growth 0.71, Bfl-1 A1 inh 0.1, LANA-H2A inh 5.2, B2AR ag 11, UCH37 DUB inh -0.1 and HNF4A DNA FP -1.4.
Screening CCCCn1nc2cc(C(=O)NCCc3cccs3)ccc2c1OCC returned Ecoli growth 0.69, Bfl-1 A1 inh 0.9, LANA-H2A inh 3.4, B2AR ag 11, UCH37 DUB inh -43, Vif A3G -1% and HNF4A DNA FP 1.2.
`COc1ccc2c(c1)CCc1c(C(=O)N3CCc4ccccc4C3)noc1-2` gave Ecoli growth 0.75, Bfl-1 A1 inh -1.1, LANA-H2A inh 3.6, B2AR ag 2, UCH37 DUB inh 1.2, Vif A3G 0% and HNF4A DNA FP 3.5.
For N#CC(C#N)=C(Nc1ccc(F)cc1)SCc1cccc(Br)c1 the results were Ecoli growth 0.58, Bfl-1 A1 inh -0.1, LANA-H2A inh -1.3, B2AR ag 24, UCH37 DUB inh 1.8, Vif A3G -9% and HNF4A DNA FP 1.7.
CC(NC(=S)Nc1ccc(Cl)cc1Cl)C(c1cccs1)N1CCCC1 (stereo not drawn) was read as Ecoli growth 0.63, Bfl-1 A1 inh -1.2, LANA-H2A inh -1.5, B2AR ag 18, UCH37 DUB inh 2.1 and HNF4A DNA FP 0.3.

For convenience, some entries already given:
Screening Cc1ccc(C(C(=O)NC2CCCC2)N(C(=O)CCC(=O)Nc2cc(C)on2)c2ccccc2)cc1 (stereo not drawn) returned Ecoli growth 0.75, Bfl-1 A1 inh -1.3, LANA-H2A inh 5.0, B2AR ag -8, UCH37 DUB inh 3.1, Vif A3G inconclusive and HNF4A DNA FP 0.4.
C/C(=N\NC(=S)NC(C)C)c1ccccc1OC(F)F was read as Bfl-1 A1 inh -0.2, LANA-H2A inh 0.8, B2AR ag -9, Vif A3G -5% and HNF4A DNA FP -1.2.
